# Source: PubChem BioAssay (National Center for Advancing Translational Sciences (NCATS))
# TRPML1 ag: qHTS for Agonists of the Human Mucolipin Transient Receptor Potential 1 (TRPML1); Mucolipin-1 (Homo sapiens), Q9GZU1; TRPML1-expressing cells, Ca2+ dye fluorescence, FDSS; host cell line not named in the record; reference of the full effect not given here; activation, % (concentration not given with the values); 410,000 compounds, 0.12% hits; in the data active = activation above about 50%; inconclusive = about 30% to 50%; inactive = below about 30%; further: 0% is about no effect; the text of the record puts the active cut at 80%
#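 Calcium fluorescence on an FDSS kinetic reader gave the read-out. Tet-induced TRPML1-DL cells were plated overnight, dye-loaded (Ca8 with quencher, 45-90 min, room temperature, dark), then read 110 s after compound addition, and again 110 s after 4uM final 54-4 (EC80).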
# D2 PAM: Beta-Arrestin HTS for Positive Allosteric Modulators of the Human D2 Dopamine Receptor: Potentiators; D(2) dopamine receptor (Homo sapiens), P14416; DiscoveRx D2 beta-arrestin cells, luminescence, 90 min; 100% = 57 uM dopamine signal; potentiation, % (concentration not given with the values); 360,000 compounds, 0.23% hits; active = potentiation of 50% or more; inconclusive = 30% to 50%; inactive = 30% or less;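 further: tested on top of an EC20 dose of dopamine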
#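 PathHunter beta-arrestin assay in DiscoveRx D2 cells. Compounds were added with an EC20 of dopamine (50 nM final) for 90 min at 37 deg C. Luminescence was read 1 h after detection reagent, with 57 uM dopamine as the EC100 control.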
# CtBP-E1A inh: qHTS Assay for Inhibitors of the CtBP/E1A Interaction | AlphaScreen GST-E1A/His-CtBP binding, 1536-well; hits give low values; control for the full effect not named in the record | activity change, % (concentration not given with the values) | 340,000 compounds, 0.49% hits | AID 651724, 2012; in the data active means activity change below about -65%; inconclusive means about -30% to -65%; inactive means above about -30%; further: on the % scale 0 is the no-effect control and ±100 the full control effect
#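 Homogeneous bead-based format: GST-tagged E1A captured on glutathione donor beads, His-tagged CtBP on nickel acceptor beads; compounds precede bead addition by 2 h at 37 °C.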
# PINK1 expr mod: A Quantitative High throughput Screen to Identify Chemical Modulators of PINK1 Expression; PINK1 immunofluorescence, high-content cytometry, 24 h; Potency, µM (series often up to 76.6 µM), for the others: at the highest dose activation (PINK1 increase), usual class: activators; 410,000 compounds, 0.2% hits; AID 624263, 2012; active = well fitted activation curve with a large enough effect; inconclusive = small, poorly fitted or top-dose-only effect; inactive = flat fitted curve, though single readings scatter; cell line not stated here;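 further: potency means the concentration at half of the fitted maximal effect; % of control where 0% means no effect; nearly all actives have a fitted effect of over 65% in size; a mitochondrial uncoupler was the plate control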
#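 Measures PINK1 amount and localization on or inside mitochondria by immunofluorescence. Stable cells get compounds at 5 concentrations for 24 hours before fixation and staining; CCCP controls included.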
# Six1-Eya2 blk: qHTS Assay for Inhibitors of the Six1/Eya2 Interaction; Homeobox protein SIX1 (Homo sapiens) + Protein phosphatase EYA2 (Homo sapiens), …; AlphaScreen GST-Six1/His-Eya2 binding, biochemical; hits give low values; control for the full effect not named in the record; activity change, % (no concentration beside the values); 360,000 compounds, 0.56% hits; in the data active = activity change below about -65%; inconclusive = about -30% to -65%; inactive = above about -30%; further: on the % scale 0 is the no-effect control and ±100 the full control effect
# Target sequence (O00167 whole entry, looked up): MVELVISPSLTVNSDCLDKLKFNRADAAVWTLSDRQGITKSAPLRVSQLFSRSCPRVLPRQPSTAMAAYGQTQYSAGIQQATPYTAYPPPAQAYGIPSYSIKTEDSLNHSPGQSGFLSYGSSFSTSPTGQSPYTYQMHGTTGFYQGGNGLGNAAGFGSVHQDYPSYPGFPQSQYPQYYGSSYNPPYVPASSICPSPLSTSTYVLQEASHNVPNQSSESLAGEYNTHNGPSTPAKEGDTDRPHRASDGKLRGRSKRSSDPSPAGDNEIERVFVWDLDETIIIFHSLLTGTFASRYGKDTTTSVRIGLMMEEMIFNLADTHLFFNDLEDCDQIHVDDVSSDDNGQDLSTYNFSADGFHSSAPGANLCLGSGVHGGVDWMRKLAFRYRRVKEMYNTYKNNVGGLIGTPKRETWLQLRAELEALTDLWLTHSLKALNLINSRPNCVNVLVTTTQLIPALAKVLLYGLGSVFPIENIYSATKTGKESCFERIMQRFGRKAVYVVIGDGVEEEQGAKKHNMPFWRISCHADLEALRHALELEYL
# Target sequence (Q15475 whole entry, looked up): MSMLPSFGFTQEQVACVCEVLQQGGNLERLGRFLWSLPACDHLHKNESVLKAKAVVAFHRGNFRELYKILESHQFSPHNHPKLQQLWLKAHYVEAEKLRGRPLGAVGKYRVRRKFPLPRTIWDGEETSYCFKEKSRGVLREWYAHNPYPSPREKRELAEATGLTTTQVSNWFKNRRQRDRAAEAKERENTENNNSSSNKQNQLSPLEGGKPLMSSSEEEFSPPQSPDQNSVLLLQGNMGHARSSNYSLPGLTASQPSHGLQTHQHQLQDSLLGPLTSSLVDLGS
#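 GST-Six1 + His-Eya2 (5X stock: 250/500 nM); Tris pH 8.0, 300 mM NaCl, 0.05% BSA, 0.02% Tween 20; GSH donor/Ni acceptor beads; 1 h 37 °C dark; AlphaScreen readout.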
# D2 agonist: Beta-Arrestin HTS for Positive Allosteric Modulators of the Human D2 Dopamine Receptor: Agonists; D(2) dopamine receptor (Homo sapiens), P14416; DiscoveRx PathHunter D2 beta-arrestin, luminescence, 90 min; 100% = 57 uM dopamine signal; activation, % (no concentration beside the values); 360,000 compounds, 0.084% hits; AID 624465, 2012; in the data active = activation above about 40%; inconclusive = about 15% to 40%; inactive = below about 15%; further: compound concentration not given in the record; the text of the record calls up to 30% inactive
#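 Agonist mode: compounds alone added to overnight-plated D2 PathHunter cells for 90 min at 37 C, with 57 uM final dopamine (EC100) defining full response. Beta-arrestin recruitment detected by chemiluminescent reagent, read after 1 h at ambient temperature.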
# Numbers without * were called inactive; ? = inconclusive; / = not tested or not shown; & = joins results of further samples; [ ] = remark or other dose.
structure	TRPML1 ag	D2 PAM	CtBP-E1A inh	PINK1 expr mod	Six1-Eya2 blk	D2 agonist
CCOCCc1nnc(NC(=O)C2CC(=O)N(CCc3ccc(F)cc3)C2)s1 (stereo unspecified)	1.0	-6	1	-2.9%	0	-0.7
CCOC(=O)c1cnc(SCc2nc(N)nc(Nc3ccccc3)n2)nc1N	0.4	-5	0	5.1%	-1	0.3
Cc1ccc(C(=O)NC2(C(F)(F)F)N=C3SCCN3C2=O)cc1 (stereo unspecified)	0.3	9	-2	-1.9%	6	1.9
C=CCSc1ncc(C#N)c(N)n1	-0.2	1	2	12%[38.3 µM]	-2	0.1
COC(=O)C1=C(N)Oc2cc(C)n(Cc3ccco3)c(=O)c2C1c1cccc(Cl)c1 (stereo unspecified)	3.2	5	-13	4.3%	-10	-2.0
COC(=O)CCN(c1ccccc1)S(=O)(=O)c1cc(-c2cc(C)no2)ccc1C	0.4	-15	-12	3.0%	-4	-1.7
CC(C)CCNC(=O)C(=O)Nc1ccc2c(c1)N(S(=O)(=O)c1cccs1)CCC2	5.1	0	-21	3.0%	1	-1.0
O=c1c2ccccc2[nH]c(=S)n1CCc1ccccc1	-0.3	-12	9	1.1%	4	-2.0
Cc1ccc(-c2cc(C(F)F)n3ncc(C(=O)N4CCN(c5ccccn5)CC4)c3n2)cc1	1.3	-6	-5	2.8%	-5	-4.3
COc1ccc(C2/C(=C(\O)c3ccc4c(c3)OCCO4)C(=O)C(=O)N2Cc2ccco2)c(OC)c1 (stereo unspecified)	1.5	-7	2	-1.6%	0	-4.1
Cc1cccc(NC(=O)CN(C)S(=O)(=O)c2cnc[nH]2)c1C	0.1&-0.5	-6	-2	-0.7%&0.3%	6	-0.9
CCOC(=O)CC(NC(=O)CCc1c(C)nc2nc(C)nn2c1C)c1ccc(C)cc1 (stereo unspecified)	-0.6	-4	4	-0.8%	-2	-1.8
COc1ccccc1CNC(=O)CCS(=O)(=O)Cc1ccc(C)cc1	-1.3	-17	2	-1.2%	1	-4.7
COc1cc(-c2nc(-c3ccccc3)c(-c3cccs3)[nH]2)cc(OC)c1OC	1.7	-20	?	2.9%[38.3 µM]	-25	-2.0
O=C(CC1(O)C(=O)Nc2ccc(Br)cc21)c1ccc2c(c1)OCO2 (stereo unspecified)	-0.5	-12	1	0.8%	-7	-3.9
CCOc1cccc(C(=O)Nc2cccnc2)c1	-0.4	-22	3	0.9%	-3	-4.0
CC(=O)NC(c1ccc(C(C)C)cc1)c1ccc2cccnc2c1O (stereo unspecified)	-0.2	-9	?	4.9%	?	-2.2
CCN(CC)C(=O)Cn1c(=O)oc2ccccc21	0.6	8	/	0.1%	7	7.4
CC1CCN(S(=O)(=O)N2CCC(C(=O)NCc3ccc4c(c3)OCO4)CC2)CC1	-0.2	5	1	-2.5%	-13	-2.7
O=C(O)c1ccc(NCc2ccc(Br)cc2)cc1	-0.7	-4	2	0.3%	-2	-2.8
CN1C=CC=C/C1=C1/SC(=S)N(Cc2ccccc2)C1=O	-0.1	-26	-23	2.3%	?	-5.2
CCO[C@@H]1OC(C(=O)N2CCCCCCC2)=C[C@H](c2ccc3c(c2)OCO3)[C@H]1CCCO	0.2	-12	7	0.1%	0	-3.3
COc1ccc(-c2nc(CS(=O)(=O)CC(=O)NCc3ccccc3Br)c(C)o2)cc1	2.0&1.0	-4	-18	0.6%&0.6%	-9	0.9
COc1ccc(NC(=O)CN(C)C(=O)C2CCCO2)cc1 (stereo unspecified)	0.0	-3	3	1.8%	10	-6.4
Nc1nccc(-c2nn(-c3ccc(Cl)cc3)ccc2=O)n1	-0.8	-17	/	-0.4%	5	-6.1
Nc1nc(-c2ccccc2)c(N=Nc2cccc3ccccc23)s1	3.0	-40	-93*	-2.3%	-78*	-12
COc1ccc(OCCCC(=O)Nc2cc(Cl)ccc2-n2cncn2)cc1	0.9	0	-19	1.6%	-4	1.0
CCOC(=O)Cn1nc(/C=C/c2ccccc2)ccc1=O	0.8	-6	-1	0.5%	4	-0.7
CC(=O)Nc1ccc(N(C(=O)c2cnccn2)C(C(=O)NC2CCCCC2)c2ccc(O)cc2)cc1 (stereo unspecified)	0.7	-7	9	/	2	-0.6
COc1ccc(/C=C/C2=CC(C)(C)NC(=S)N2)c(OC)c1	4.9	-6	-26	2.6%	-18	1.8
O=C(Cn1cc(Br)ccc1=O)Nc1ccc2c(c1)OCO2	-0.7	-6	/	0.1%	-3	-4.5
COC(C[C@@H]1O[C@H]1[C@@H](O)COCc1ccccc1)OC	1.6	-2	7	-1.0%	11	1.9
COc1ccc2[nH]c(=O)c(-c3nnn(-c4ccccc4)n3)cc2c1	-1.2	-4	-2	1.4%	-6	-0.5
O=C(NCCCn1ccnc1)c1nn2c(C(F)(F)F)cc(-c3ccccc3)nc2c1Cl	0.2	0	-16	3.9%	-10	-4.2
Oc1ccc(N2CCN(c3ncnc4sc5c(c34)CCC5)CC2)cc1	-1.0	68*	-25	-0.3%	?	11
COc1ccc(C(CC(=O)Nc2cc([N+](=O)[O-])ccc2OC)c2ccccc2)cc1 (stereo unspecified)	1.0	-21	-9	2.1%	-13	-4.5
COc1ccc(CCN2C(=O)N[C@@H](CCC(=O)O)C2=O)cc1	-0.2	-17	/	4.6%	0	3.7
COC(=O)c1cccc(C(=O)N2CCCC(CCC(=O)N(C)CCc3ccccn3)C2)c1 (stereo unspecified)	-0.4	14	8	1.0%	0	-3.2
O=C(CCC(=O)N1CCN(c2cccc(Cl)c2)CC1)c1cccs1	4.6	-5	4	-0.6%	-3	3.2
Cn1c(CO)nc2c3ccccc3ccc21	-0.5	-4	7	1.5%	-10	-2.8
CCN(CC)CCCNc1cc2n(c(=O)n1)CCc1cc(OC)c(OC)cc1-2	-1.1	-28	-69*	-0.4%	-80*	-0.9
C[C@H](CO)N1C[C@H](C)[C@@H](CN(C)C(=O)c2cccc(F)c2)Oc2cc(-c3cncnc3)ccc2S1(=O)=O	-0.3	1	2	1.4%	3	-11
Cc1ccc(NC(=O)[C@@H]2CCCN2S(=O)(=O)c2ccccc2F)cc1S(=O)(=O)N1CCOCC1	1.3	-1	?	1.3%	?	2.7
COc1ccc(CC(N)c2csc(NC(=O)c3cc(C(C)(C)C)nn3Cc3ccccc3)n2)cc1 (stereo unspecified)	-0.1	2	-10	-1.0%	-10	14
CN(c1nc2ccccc2nc1Cl)S(=O)(=O)c1ccccc1	0.1	0	4	-2.7%	-2	0.0
CN(Cc1cccs1)c1nc(-c2cccnc2)nc2ccccc12	-0.4	-18	-17	0.1%	-24	-3.1
Oc1c(Br)cc(Br)cc1/C=N/n1c(-c2ccccc2)n[nH]c1=S	0.0	-9	/	0.2%	0	1.8
O=[N+]([O-])c1ccc(-c2ccc(/C=N/n3cnnc3)o2)c(Br)c1	1.7	-2	-25	1.7%	-6	-0.8
CN(CC(=O)Nc1ccccc1C(F)(F)F)Cc1c(O)ccc2ccccc12	0.7	?	7	1.9%	-5	?
O=C(COc1coc(CN2CCN(c3ccccc3F)CC2)cc1=O)Nc1ccccc1	-0.1	0	-14	?	1	-2.6
Cc1noc(NS(=O)(=O)c2ccc(NC(=O)C(Cl)(Cl)Cl)cc2)c1C	1.4	?	6	0.7%	-1	10
Cc1cccc(CN2CCN(C3CN(Cc4cn(Cc5cc(C)cc(C)c5)nn4)S(=O)(=O)C3)CC2)c1 (stereo unspecified)	-0.7	/	-1	0.6%	-1	/
CC1(C(=O)NCCc2c[nH]c3ccccc23)C=CCN1C(=O)c1ccccc1 (stereo unspecified)	-0.1	-1	/	1.9%	6	-0.8
Cc1ccc2cc(/C=N/NC(=O)[C@H](C)NC(=O)OC(C)(C)C)c(Cl)nc2c1	2.0	-12	2	7.7%	0	-0.1
Oc1c(Br)cc(/C=N/Nc2nncc3ccccc23)cc1Br	2.6	-1	-5	1.5%	-6	-0.6
CSc1ccc(S(=O)(=O)N2CCC(C(=O)NCC3CCCO3)CC2)cc1 (stereo unspecified)	1.2	-11	-11	1.1%	18	-2.3
COc1ccc(C(=O)N/C(=C\c2ccc(Cl)cc2)C(=O)NCc2ccncc2)cc1	-0.3	-11	-11	0.4%	2	-2.4
O=C(CC1(O)C(=O)Nc2ccccc21)c1ccc(-n2cccc2)cc1 (stereo unspecified)	-0.9	26	-3	0.4%	-7	-0.7
CCOC(=O)c1c(C)c(C(=O)NCCCOC)c(C)n1C	-0.1	2	-16	0.6%[38.3 µM]	-7	1.7
NC(=O)C1=C[C@@H](c2coc3ccccc3c2=O)C[C@@H](OCCCCO)O1	-0.3	-7	-11	-0.2%	11	-1.7

# 4 structures already listed, ordered by molecular weight, falling.
structure	TRPML1 ag	D2 PAM	CtBP-E1A inh	PINK1 expr mod	Six1-Eya2 blk	D2 agonist
Cc1cccc(CN2CCN(C3CN(Cc4cn(Cc5cc(C)cc(C)c5)nn4)S(=O)(=O)C3)CC2)c1 (stereo unspecified)	-0.7	/	-1	0.6%	-1	/
Cc1noc(NS(=O)(=O)c2ccc(NC(=O)C(Cl)(Cl)Cl)cc2)c1C	1.4	?	6	0.7%	-1	10
O=[N+]([O-])c1ccc(-c2ccc(/C=N/n3cnnc3)o2)c(Br)c1	1.7	-2	-25	1.7%	-6	-0.8
NC(=O)C1=C[C@@H](c2coc3ccccc3c2=O)C[C@@H](OCCCCO)O1	-0.3	-7	-11	-0.2%	11	-1.7

# More compounds:
structure	TRPML1 ag	D2 PAM	CtBP-E1A inh	PINK1 expr mod	Six1-Eya2 blk	D2 agonist
CC1(C)CC(=O)C=C(c2cccc(Br)c2)C1	1.7	-1	9	0.9%	7	-0.1
Cc1cccc(NC(=O)Cn2cc([N+](=O)[O-])cn2)n1	-0.6	-2	4	1.5%	0	-5.3
CC(=O)c1ccc(N2CCN(C(=O)c3ccc(Cl)c(NC4=NC5CS(=O)(=O)CC5S4)c3)CC2)cc1 (stereo unspecified)	-0.6	-2	-4	-0.1%	-3	-0.2
CSc1nnc(-c2ccccc2)c(=O)[nH]1	0.7	-8	-1	-1.6%	13	0.0
CCOc1ccc(C2C=C(c3ccc(C)cc3)Nc3nnnn32)cc1 (stereo unspecified)	6.6	-2	-1	4.4%	16	1.9
CN(CP(=O)(O)C(O)c1ccccc1)S(C)(=O)=O (stereo unspecified)	-0.4	-10	1	0.4%	1	-1.8
O=C(CSC1=NS(=O)(=O)c2cc(Cl)ccc2N1)NCc1ccccc1	1.6	5	10	0.6%	4	12
